Screening data as filed in PubChem BioAssay.
Sa growth 42C: inhibitors of Staphylococcus aureus growth at 42 °C; S. aureus RN4220 growth, OD600, 20 h; active compounds read low; relative growth, % (concentration not given with the values); actives 0.53% (n = 170,000);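 active means growth at 42 °C up to 50% and 20 or more points under that at 30 °C, or under 10% at both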;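 further: 300 nL library stock went into each well; scaled to the means of positive and negative controls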
GIV Gai3 FP: inhibitors of GIV GBA-motif binding to rat Galpha-i3. actives 0.42% (n = 210,000). Galpha-i3/FITC-GIV peptide fluorescence polarization, 90 min; active compounds read low; scaled: aluminum fluoride 0%, vehicle 100%. AID 1224905. percent of control (FP), % (no concentration beside the values). P08753;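 active means replicate mean at 85% of control or lower, very high polarization wells dropped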;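 further: wells of about 15 µL received 100 nL stock; the first replicate is given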
Target sequence (P08753 whole entry, looked up): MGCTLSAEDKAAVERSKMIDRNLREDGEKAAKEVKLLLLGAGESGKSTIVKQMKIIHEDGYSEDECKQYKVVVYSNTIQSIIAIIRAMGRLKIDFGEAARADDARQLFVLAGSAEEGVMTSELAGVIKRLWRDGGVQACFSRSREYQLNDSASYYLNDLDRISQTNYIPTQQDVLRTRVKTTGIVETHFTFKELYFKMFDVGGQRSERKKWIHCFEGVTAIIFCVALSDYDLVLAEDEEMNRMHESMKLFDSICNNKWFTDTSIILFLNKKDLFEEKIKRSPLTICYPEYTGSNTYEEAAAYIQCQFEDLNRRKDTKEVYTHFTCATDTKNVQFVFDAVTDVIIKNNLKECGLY
HCMV UL50-53 inh: disrupts HCMV UL50-UL53 complex binding; inhibition, % (test concentration not listed); actives 0.15% (n = 190,000); HTRF UL50-UL53 interaction, normalized percent inhibition; AID 1918969;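 active means both replicates at 50% or more, plus weaker picks with an unusually low signal ratio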;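 further: stock transfer was 100 nL into about 20 µL; 0% = negative control wells and 100% = wells with untagged competitor protein; inactives centre near -12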
Sa growth 42C second temp: recorded beside Sa growth 42C, whose call it bears; relative growth, %; measured here: growth at 30 °C;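 optical density after 20 h as mean of two plates; 100% = untreated growth and lower means inhibition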
Numbers without * were called inactive; / = no result given; & = joins results of further samples. Random draw from the library; about 0.85% have a hit in one of these screens.

molecule | Sa growth 42C | Sa growth 42C second temp | GIV Gai3 FP | HCMV UL50-53 inh
CCOc1ccccc1Nc1nc2ccccc2nc1NS(=O)(=O)c1ccc(Cl)cc1 | 118 | 85 | 98 | -15
Cc1ccc(NC(=O)C(C)C(=O)Nc2ccc(C)cc2)cc1 | 104 | 84 | 101 | -22
COc1ccc(-c2oc3ccc(OC)cc3c2C(=O)Nc2ccc(N(C)C(C)=O)cc2)cc1 | / | / | 108 | -2
O=C(O)CCCC(=O)Nc1ccccc1 | 96 | 91 | / | -3
Cc1ccc(/C=C/c2onc(C)c2S(=O)(=O)N2CCCC(C(=O)Nc3ccc(C)cn3)C2)cc1 (stereo not given) | / | / | 100 | -26
O=C1c2ccccc2NC(c2cccs2)N1c1ccc2c(c1)OCCO2 (stereo not given) | 83 | 108 | / | -2
Cc1cc(-c2csc(CC#N)n2)c(C)n1Cc1ccco1 | 102 | 75 | / | -12
O=C(Nc1cccc2c1C(=O)c1ccccc1C2=O)c1cccc(Oc2ccccc2)c1 | / | / | 99 | -1
COc1ccc(Cn2c(C(=O)O)c(CNC3CCCCCC3)c3ccc(OC)cc32)cc1 | 98 | 108 | 110 | /
CCOc1ccc2nc(N3CCCC(C(=O)Nc4cc(C)ccc4C)C3)sc2c1 (stereo not given) | 100 | 102 | 112 | -4
O=C(Nc1ccc2c(c1)OCCO2)c1ccc(Nc2ccc(-c3ccccc3)nn2)cc1 | / | / | 105 | 18
CN1CCC(N(C)Cc2ccccc2)CC1 | 102 | 101 | 97 | -4
c1ccc2c(c1)nc1n2CCSC1 | 113 | 90 | / | -24
CCOC(=O)c1cc2ccsc2n1CC(=O)Nc1ccc(Cl)cc1 | / | / | 107 | -28
COc1nc(-c2ccccc2)nc(C)c1CC(=O)O | 110 | 115 | 100 | 18
COC(=O)C1=C(C)NC(C)=C(C(=O)OC)C1C(=O)OCC(=O)N1CCN(C(C)=O)CC1 | 76 | 84 | / | -26
O=C(Nc1cccc(C(F)(F)F)c1)Nc1ccc2[nH]c(=O)[nH]c2c1 | 112 | 95 | / | -18
CC1(C)CC2CC(C)(CN2S(=O)(=O)c2ccc(F)cc2F)C1 (stereo not given) | 102 | 87 | / | -35
CCOC(=O)Cn1nnc(-c2ccc(OCc3ccccc3F)cc2)n1 | 98 | 78 | / | -11
O=C1CN(C(=O)Nc2ccccc2Cl)C(c2ccccc2)c2c(sc3c2CCCC3)N1 (stereo not given) | 128 | 94 | 107 | -16
C=CCNc1cc(C)nc2nncn12 | 78 | 84 | 101 | /
COc1ccc(OC)c(C2c3cccn3CCN2C(=S)NC(C)(C)C)c1 (stereo not given) | 124 | 88 | 101 | /
COC(=O)c1c(SCC(=O)Nc2cccc(C(F)(F)F)c2)[nH]c2ccccc2c1=O | 76 | 88 | 94 | /
CCCn1c2ccccc2c2cnn(CC(=O)N(C)c3ccc(F)cc3)c(=O)c21 | 108 | 104 | 110 | /
CC(C)CCNc1ncc2c(n1)CC(c1ccccc1Cl)CC2=O (stereo not given) | 71 | 96 | 99 | /
Cc1ccc2c(c1)C(=O)OC(C(=O)Nc1ccc(C(=O)O)cc1)C2 (stereo not given) | 90 | 95 | 100 | -8
O=C(Nc1ccccc1F)c1ccc(-n2nnc3cccnc32)cc1 | / | / | 109 | -32
O=C1CCCN1CCCNc1nsc2ccccc12 | 92 | 81 | / | -51
O=C(NN1C(=O)CSC1c1ccco1)c1ccc(O)cc1 (stereo not given) | 85 | 91 | / | -54
CC1CCc2cc(F)cc3c(O)c(C(=O)Nc4ccccn4)c(=O)n1c23 (stereo not given) | 107 | 100 | / | 5

The list goes on (two carried over from the part before).
molecule | Sa growth 42C | Sa growth 42C second temp | GIV Gai3 FP | HCMV UL50-53 inh
O=C(NN1C(=O)CSC1c1ccco1)c1ccc(O)cc1 (stereo not given) | 85 | 91 | / | -54
CC1CCc2cc(F)cc3c(O)c(C(=O)Nc4ccccn4)c(=O)n1c23 (stereo not given) | 107 | 100 | / | 5
CCOC(=O)C1=C(CSc2nnc3n(-c4ccccc4)c(=O)c4ccccc4n23)NC(=O)NC1C (stereo not given) | 116 | 93 | / | -21
Cc1ccc(NC(=O)CCSc2nc(-c3ccc4c(c3)OCO4)cc(C(F)(F)F)n2)cc1 | 101 | 96 | 100 | -12
CCOC(=O)C(C)n1cnc2c(cnn2-c2ccc(F)cc2)c1=O (stereo not given) | 112 | 96 | 104 | /
CCCSc1nc2sc3c(c2c(=O)[nH]1)C(C)CCC3 (stereo not given) | 114 | 96 | 102 | -7
COc1ccc2c(Sc3ccccc3)c(C(=O)NCCN(C)C)[nH]c2c1 | 92 | 89 | 101 | -21
CN(C)C(=O)/C=C/c1cn(-c2ccccc2)nc1-c1cc2ccccc2o1 | 107 | 90 | / | -29
COc1ccc(C2NC(=O)NC3=C2C(=O)CCC3)cc1 (stereo not given) | 82 | 84 | / | -31
CCOc1ccc(C2C3=C(CC(C)(C)CC3=O)Nc3onc(C)c32)cc1 (stereo not given) | / | / | 108 | -13
Cc1oc2ncn(CC(=O)NCCN3CCOCC3)c(=O)c2c1C | / | / | 104 | -37
Cc1cc(-c2cc(S(=O)(=O)N3CCOCC3)c(C)s2)on1 | / | / | 101 | -26
CCCCc1nnc2sc(-c3c[nH]c4ccccc34)nn12 | / | / | 102 | -11
Cc1oc(-c2ccccc2F)cc1CO | 151 | 82 | 108 | 6
CC1CCCC(C)N1S(=O)(=O)c1ccc(NC(=O)c2ccccc2C(=O)N2CCOCC2)cc1 (stereo not given) | 101 | 96 | 101 | -15
Cc1cc2nnc(SCC(=O)NCC(C)C)n2c2ccccc12 | 110 | 91 | / | -9
CS(=O)(=O)Nc1ccc(-c2cn3c(n2)SCC3)cc1 | 111 | 89 | 107 | 1
COc1ccc(CCC(=O)Nc2cccc3nsnc23)cc1 | / | / | 96 | -54
Cc1ccc2cnn(CC(=O)N3CCCCC3)c2c1 | 124 | 86 | 104 | -7
CN(C)c1nc(N)nc(Cn2cnc3sc4c(c3c2=O)CCCC4)n1 | 98 | 80 | 104 | -11
CNC(=O)NC(=O)CSc1nnc(-c2ccncc2)n1Cc1ccccc1 | 96 | 82 | 103 | -7
CC(=O)N1N=C(c2ccccc2)CC1Cc1cc2cccc(C)c2[nH]c1=O (stereo not given) | / | / | 110 | 7
Cc1cc(N2C(=O)CCS2(=O)=O)ccc1S(=O)(=O)NC1CCS(=O)(=O)C1 (stereo not given) | / | / | 107 | -26
COc1ccc(C2NC(C(=O)O)C3C(=O)N(c4ccc(F)cc4)C(=O)C23)c(OC)c1 (stereo not given) | 98 | 92 | 105 | 3
Cc1cccc(C)c1-n1ncc(C(=O)N2CCN(c3ccccc3)CC2)c1C1CCN(C(=O)OC(C)(C)C)CC1 | 103 | 88 | 105 | /
O=Nc1c(O)n2c3c(cccc13)CCC2 | 110 | 77 | 111 | -37
COc1ccccc1N(C(C)=O)C1SC(=O)N(c2ccccc2)C1=O (stereo not given) | 96 | 85 | 103 | -8
CCn1nc(C)cc1C(=O)n1nc(C)c(Sc2ccc(C(F)(F)F)cn2)c1C | 95 | 86 | 99 | -28
CCc1ccc(NC(=O)Cn2nc3ccc(S(=O)(=O)C(C)(C)C)nn3c2=O)cc1 | / | / | 100 | -62
CN1C(C(=O)c2ccccc2)=C(NC(=O)c2ccccc2)c2ccccc2S1(=O)=O | 103 | 91 | 67* | -5
CCN(Cc1ccccc1)Cc1nnnn1CCOC | 92 | 77 | 101 | 5
CCN(CCN(C)C)C(=O)Cn1ncc2c(=O)oc3ccc(C)cc3c21 | 86 | 87 | 99 | -2

Continued:
molecule | Sa growth 42C | Sa growth 42C second temp | GIV Gai3 FP | HCMV UL50-53 inh
Cc1ncc(CO)c2c1Oc1[nH]c(-c3ccccc3)nc(=S)c1C2 | 69 | 58 | 101 | -5
CCCC1(CCC)NC(=O)N(CCOc2ccc(C)cc2)C1=O | 68 | 91 | / | -26
O=C(Nc1cccc(C(F)(F)F)c1)c1cc2nc(-c3ccco3)cc(C(F)(F)Cl)n2n1 | 108 | 87 | 108 | -27
CN1CCC(N(C)C(=O)c2cn(-c3ccccc3)nc2-c2cccs2)CC1 | 64 | 91 | / | 5
O=c1c2sccc2n2c(=S)[nH]nc2n1Cc1ccccc1 | / | / | 105 | 11
CCOc1ccc2oc(-c3ccccc3)c(C(=O)Nc3ccc(OC)cc3)c2c1 | / | / | 105 | 0
c1ccc2c(c1)nc1n2CCN(C2CCCCC2)C1 | / | / | 102 | -28
C=CCNC(=O)CCn1c(=O)sc2ccccc21 | 108 | 90 | 104 | -6
O=C(CSc1nnc(-c2ccccc2)o1)Nc1ccccc1 | 101 | 90 | 102 | -16
Brc1ccc(-c2ccc(C3CCCCC3)cn2)cc1 | 97 | 93 | / | 7
Cc1cc(C)cc(NC(=O)N2CCC(C(N)=O)(N3CCCCC3)CC2)c1 | 108 | 88 | 100 | -10
Cc1ccc(CNC(=O)C2CCN(S(=O)(=O)N3CCC4(CC3)OCCO4)CC2)cc1 | 107 | 95 | 102 | -2
COc1cc(C2C(C#N)=C(SCC(=O)c3cc4ccccc4o3)NC3=C2C(=O)CC(C)(C)C3)cc(OC)c1OC (stereo not given) | 98 | 101 | 117 | 3
CN(C)S(=O)(=O)c1cccc(C(=O)N2CCN(c3ccccc3)CC2)c1 | 98 | 87 | / | -29
CCN(CC)S(=O)(=O)c1ccc(Cl)c(C(=O)N2c3ccccc3Sc3ccccc32)c1 | 91 | 84 | / | -15
O=C(CC1(O)C(=O)N(Cc2ccccc2)c2ccccc21)c1ccc(Br)s1 (stereo not given) | 77 | 98 | / | -16
O=C1CSC(c2ccccc2O)N1Cc1ccccc1 (stereo not given) | 112 | 95 | 109 | 11
COc1cccc(NC(=O)Cn2c(=O)n(CCCCC(=O)NCc3ccc4c(c3)OCO4)c(=O)c3ccccc32)c1 | 100 | 92 | 105 | -14
Cc1cc(C)c2c(=O)n(CC(=O)NC(C)c3ccccc3)sc2n1 (stereo not given) | 18 | -1 | 105 | /
CN(Cc1nc2ccccc2n1C)S(=O)(=O)c1ccc(F)cc1 | 106 | 80 | 105&99 | -10&-27
Cc1cc(=O)n(CC(=O)N2CCN(c3ccc(F)cc3)CC2)c2c1c(C)nn2C | 95 | 89 | 99 | /
CCOC(=O)c1nc(Nc2ccc3c(c2)OCO3)c2c3c(sc2n1)CCCC3 | / | / | 104 | -16
Cc1ccccc1NC(=O)/C=C/c1ccc2c(c1)OCO2 | 108 | 100 | 105 | /
CC1CCCCN1C(=O)c1ccccc1F (stereo not given) | 95 | 97 | 99 | -14
NS(=O)(=O)c1ccc(NC(=O)c2ccc3c(c2)CCN3S(=O)(=O)c2ccccc2)cc1 | 97 | 82 | 104 | -15
O=C(Oc1ccc2oc(-c3ccco3)cc(=O)c2c1)c1ccccc1 | 108 | 109 | 113 | -12
Cc1ccccc1C(=O)NC1CCN(CC(=O)NC(C)(C)C)CC1 | 114 | 103 | 99 | -8
COc1cccc(C(=O)OCC(=O)N2c3ccccc3CC2C)c1 (stereo not given) | 74 | 89 | / | -24

Entries of single compounds from above. Screens in order: Sa growth 42C, Sa growth 42C second temp, GIV Gai3 FP, HCMV UL50-53 inh
Cc1cc(N2C(=O)CCS2(=O)=O)ccc1S(=O)(=O)NC1CCS(=O)(=O)C1 (stereo not given) is entered as /, /, 107, -26
CC1CCCCN1C(=O)c1ccccc1F (stereo not given) is entered as 95, 97, 99, -14
COc1ccccc1N(C(C)=O)C1SC(=O)N(c2ccccc2)C1=O (stereo not given) is entered as 96, 85, 103, -8
CNC(=O)NC(=O)CSc1nnc(-c2ccncc2)n1Cc1ccccc1 is entered as 96, 82, 103, -7
COc1nc(-c2ccccc2)nc(C)c1CC(=O)O is entered as 110, 115, 100, 18

Some of the entries so far, with each value named:
C=CCNC(=O)CCn1c(=O)sc2ccccc21
  Sa growth 42C: 108
  Sa growth 42C second temp: 90
  GIV Gai3 FP: 104
  HCMV UL50-53 inh: -6
CN1CCC(N(C)C(=O)c2cn(-c3ccccc3)nc2-c2cccs2)CC1
  Sa growth 42C: 64
  Sa growth 42C second temp: 91
  GIV Gai3 FP: /
  HCMV UL50-53 inh: 5
Cc1ccccc1C(=O)NC1CCN(CC(=O)NC(C)(C)C)CC1
  Sa growth 42C: 114
  Sa growth 42C second temp: 103
  GIV Gai3 FP: 99
  HCMV UL50-53 inh: -8
O=c1c2sccc2n2c(=S)[nH]nc2n1Cc1ccccc1
  Sa growth 42C: /
  Sa growth 42C second temp: /
  GIV Gai3 FP: 105
  HCMV UL50-53 inh: 11
